MLL AF4-AF9 inh = inhibitors of human MLL-AF4/AF9 interaction; 0.47% of 350,000 active; P42568; AlphaScreen, biotin-AF4 peptide binding to FLAG-AF9; inhibition, % at 10 µM;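 active = every replicate reaching a set inhibition limit, whatever the replicate mean, cut at about 25% in these data; inconclusive = mean inhibition reaches that limit but some replicates miss it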;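 note: 0% = plate neutral control median and 100% = total signal loss; the record names both 10 and 1 µM as test concentration; the first replicate is given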
Target sequence (P42568 whole entry, looked up): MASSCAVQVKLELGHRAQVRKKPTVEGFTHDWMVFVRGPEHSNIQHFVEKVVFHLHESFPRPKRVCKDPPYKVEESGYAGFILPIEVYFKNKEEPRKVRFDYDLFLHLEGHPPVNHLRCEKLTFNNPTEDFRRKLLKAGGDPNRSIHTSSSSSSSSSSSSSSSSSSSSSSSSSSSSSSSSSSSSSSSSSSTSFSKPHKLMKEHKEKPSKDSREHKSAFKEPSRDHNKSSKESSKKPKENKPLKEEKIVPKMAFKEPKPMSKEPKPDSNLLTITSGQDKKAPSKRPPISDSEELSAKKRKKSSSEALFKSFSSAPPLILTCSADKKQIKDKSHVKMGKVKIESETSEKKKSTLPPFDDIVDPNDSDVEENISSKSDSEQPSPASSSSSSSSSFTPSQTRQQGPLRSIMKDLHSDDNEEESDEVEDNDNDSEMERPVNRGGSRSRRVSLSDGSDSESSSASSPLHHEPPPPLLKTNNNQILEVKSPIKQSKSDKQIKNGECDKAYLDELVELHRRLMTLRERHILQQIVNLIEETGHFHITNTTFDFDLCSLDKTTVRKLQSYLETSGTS
UCH37 DUB inh = human UCH37 deubiquitinating enzyme inhibition; Q9Y5K5; purified proteasome/UCH37, Ub-AMC cleavage fluorescence; inhibition, % (concentration not given with the values); 0.33% of 330,000 active; AID 588478;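 active = mean of two replicates above 20%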;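 note: 0% = compound-free wells with enzyme and 100% = wells lacking proteasome; stock transfer was 100 nL into about 20 µL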
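Reagent: Ub-AMC substrate; assay system: Proteasome-associated human UCH37 deubiquitinase; controls: no-proteasome and no-compound wells; read-out: % inhibition of Ub-AMC cleavage fluorescence; timing: 30 min preincubation with enzyme, 25 min cleavage at room temperature; signal: AMC fluorescence from Ub-AMC cleavage, excitation 355 nm, emission 460 nm; buffer or medium: Tris-HCl pH 7.4 plus ovalbumin, ATP-MgCl2, DTT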
T cruzi repl = blocks replication of Trypanosoma cruzi | T. cruzi beta-gal in NIH3T3, luminescence, 90 h | inhibition, % (no concentration beside the values) | 1.4% of 300,000 active | AID 1885;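 active = mean inhibition across valid replicates above about 55%, limit read from the data; inconclusive = mean below that limit but half or more replicates reach it; inactive = mean below it, under half of replicates reach it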;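 note: signal also drops with host cell toxicity which is not excluded here; 0% = plate median of DMSO wells and 100% = zero luminescence signal; higher percent means less beta-gal luminescence so fewer parasites; stock transfer was 50 nL into about 50 µL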
rRNA inh HTS = selective bacterial rRNA inhibition in E. coli; E. coli WT GFP vs humanized-ribosome RFP mutants, fluorescence, 24 h; hits give low values; DMSO median 0, no signal -100; GFP signal change (wild-type ribosome), % (no concentration beside the values); 1.6% of 350,000 active;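 active = significant combined selectivity score with lowered wild-type GFP, culture density cut under 30%, mutant RFP and density less affected; inactive = any of these conditions unmet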; note: one replicate is shown; some compounds called inactive have numbers as strong as hits
Beta apoptosis = beta cell apoptosis inhibition. 0.8% of 300,000 active. INS-1E cytokine-induced death, ATP luminescence, 48 h; percent of positive-control rescue, neutral wells zero. protection from apoptosis, % (test concentration not listed);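 active = all replicates at 75% or more, or half of them and the mean; inconclusive = half reach 75% but not the mean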;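 note: 0% = cytokine-treated negative control wells and 100% = positive control rescue; higher means more ATP so stronger rescue from cytokine killing; wells of about 40 µL received 100 nL stock; the first replicate is given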
FGF22 binding = shifts melting point of recombinant human FGF22; 1.5% of 340,000 active; AID 651658; recombinant FGF22 thermal shift, SYPRO orange fluorescence; percent of sucrose octasulfate shift, DMSO zero; calls only at 9.99 µM;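 active = melting point raised past a set limit in the mean and every replicate; inconclusive = no clear call; three in four hits are not shown here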
Target sequence (Q9HCT0 whole entry, looked up): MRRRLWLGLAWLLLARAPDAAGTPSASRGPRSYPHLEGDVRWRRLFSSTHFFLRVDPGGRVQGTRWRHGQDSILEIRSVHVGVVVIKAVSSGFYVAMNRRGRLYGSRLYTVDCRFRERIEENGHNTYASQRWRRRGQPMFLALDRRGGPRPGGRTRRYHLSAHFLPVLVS
E coli growth = inhibitors of Escherichia coli growth | OD600 absorbance (no concentration beside the values) | OD600, 23 h; hits give low values | 0.21% of 330,000 active;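 active = OD600 absorbance below the run mean of sample wells minus 3.6 SD, in any replicate, cut at about 0.56 in these data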;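 note: stock transfer was 300 nL into about 60 µL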
Bfl-1 A1 inh = inhibitors of the anti-apoptotic protein A1, read as caspase activation. MEF A1-2A-BIM cells, Caspase-Glo 3/7 luminescence, 3 h; percent of clofoctol response, vehicle zero. caspase activation, % (test concentration not listed). 0.066% of 330,000 active. AID 2462;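 active = over half of replicate activation scores above 10%, or exactly half above 10 with the replicate mean above 10; inconclusive = replicate mean below 10 yet half the replicates above 10; inactive = over half of replicates below 10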;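 note: wells of about 30 µL received 50 nL stock; many hits fall short of the cut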
rRNA inh HTS OD600 = further read-out of rRNA inh HTS, marked with its call; OD600 change, %; measured here: OD600 growth;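 optical density of the mix in the first replicate; 0 = DMSO median and -100 = no signal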
rRNA inh HTS RFP = also measured in rRNA inh HTS; calls as there; RFP signal change, %; measured here: RFP humanized mutant strains;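 first replicate; 0 = DMSO median and -100 = no signal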
Numbers without * were called inactive; i = inactive; u = inconclusive; x = no result given.

Every second line gives: MLL AF4-AF9 inh, UCH37 DUB inh, T cruzi repl, rRNA inh HTS, rRNA inh HTS OD600, rRNA inh HTS RFP, Beta apoptosis, FGF22 binding, E coli growth, Bfl-1 A1 inh
> Cc1ccc(C(=O)c2ccccc2C(=O)OCC(=O)Nc2ccc(SC(F)F)cc2)cc1
→ 0.7, -0.5, -16.3, -14.6, -18.3, -4.6, 1.2, i, 0.718, -1.5
> COc1ccc(-n2cc(-c3ccccc3)[nH]c2=S)cc1
→ x, 2.4, -24.0, x, x, x, 6.4, x, 0.664, 1.7
> O=C(NS(=O)(=O)c1ccccc1)c1ccccc1F
→ x, 3.5, -6.9, x, x, x, -6.5, x, 0.648, -0.8
> Cc1cc(NC(=O)Nc2ccccc2)n(-c2ccccc2)n1
→ x, -1.3, 7.5, x, x, x, -4.6, x, 0.681, u
> CCc1ccc(NC(=O)C(=O)NCCN2CCN(S(=O)(=O)c3ccccc3)CC2)cc1
→ 1.4, 2.2, 8.4, 2.2, 4.4, -2.3, -0.2, i, 0.665, 0.1
> COc1ccccc1NS(=O)(=O)c1cc(C(=O)NCC2CCCO2)ccc1C (centres undefined)
→ 3.0, 6.4, -4.5, 9.2, 4.7, -0.6, -4.6, i, 0.688, 1.0
> O=C(c1ccccc1)c1cccc(C(=O)c2ccccc2)c1
→ x, 0.3, x, x, x, x, -0.8, x, 0.689, -0.7
> Cc1ccc(C(=O)OCC(=O)N(C)C2CCS(=O)(=O)C2)cc1S(=O)(=O)N1CCCCC1 (centres undefined)
→ -5.4, 3.8, 4.4, 5.4, 6.0, 0.1, 1.8, i, 0.699, 0.6
> FC(F)(F)c1cccc(NC(=S)NCc2ccc(Cl)cc2)c1
→ x, 6.4, 46.5, x, x, x, 18.1, x, 0.656, -0.2
> CN(Cc1ccccc1)C(=O)COC(=O)c1cc(S(=O)(=O)N(C)C)ccc1N1CCCC1
→ 0.3, 5.7, 26.3, -6.5, -15.2, -1.2, 4.0, i, 0.665, -0.6
> NC(=O)CCCc1nc(-c2ccccc2Cl)no1
→ x, 2.3, -28.5, x, x, x, -6.1, x, 0.686, -0.8
> O=c1cc(-c2ccccc2)[nH]c2nc3ccccc3n12
→ x, -200.4, 9.4, x, x, x, 18.1, x, 0.673, -8.0
> O=C1CCC[C@@H]2CC(Nc3ccc(F)cc3F)C[C@@H]3CCN1[C@H]23 (some centres undefined)
→ 4.4, 1.8, x, -0.1, -0.7, 6.9, x, i, 0.7, x
> Cc1ccc(NC(=O)c2cc(-n3cnnc3)ccc2Cl)c(C)c1
→ x, 3.8, -1.4, x, x, x, -2.1, x, 0.665, -0.2
> COc1ccc(NC(=O)CCC(=O)NCc2ccco2)c([N+](=O)[O-])c1
→ -9.8, 1.5, -0.2, 8.4, 8.9, 0.7, -1.4, i, 0.679, 0.2
> CCOC(=O)N1CCN(S(=O)(=O)c2ccc(F)c(C(=O)Nc3ccc(C(C)C)cc3)c2)CC1
→ x, 0.6, 3.5, x, x, x, -0.1, x, 0.617, 0.1
> CN(C)S(=O)(=O)c1cccc(C(=O)Nc2cc(Cl)ccc2O)c1
→ x, 2.1, -1.1, x, x, x, -3.4, x, 0.676, -1.2
> CCn1c(=O)cc(O)c2c(=O)n(C)c(=O)n(C)c21
→ x, 0.9, -3.6, -18.6, -17.6, -6.0, -1.6, x, 0.73, -0.8
> COc1ccc(CCNC(=O)c2ccc3nc4cc(Cl)ccc4c(=O)n3c2)cc1OC
→ 2.5, -67.4, -10.4, -0.1, 1.1, 0.4, 0.0, i, 0.682, 0.3
> COc1ccc(OCC(=O)N/N=C(\C)CC(=O)Nc2ccc(NC(C)=O)cc2)cc1
→ -1.4, x, -0.8, 4.6, 20.5, 0.5, x, i, x, 0.0
> C=CCN(c1ccccc1)S(=O)(=O)c1c(C)[nH]c(=O)[nH]c1=O
→ -2.1, 0.6, -8.8, 13.2, 5.2, 0.2, 2.4, i, 0.676, -0.3
> CN=c1scc(-c2ccc([N+](=O)[O-])cc2)n1/N=C/c1ccco1
→ 5.6, x, -7.1, -18.1, 16.9, -0.6, 1.5, i, x, -0.5
> Clc1ccccn1
→ x, -2.7, x, 4.2, 10.6, 1.0, 2.5, i, 0.672, 0.1
> C=CCOC(=O)C1=C(C)Nc2nc3ccccc3n2C1c1ccncc1 (centres undefined)
→ x, -81.4, 10.2, x, x, x, -0.5, x, 0.751, -0.3
> CCCCC(=O)Nc1ccc(C(=O)Nc2nc(CC(=O)OCC)cs2)cc1
→ x, -2.2, 0.3, x, x, x, -3.7, x, 0.645, 0.7
> Cn1c(CNC2CCCCC2)c(C#N)c2ccccc21
→ x, 0.5, -7.1, x, x, x, 5.1, x, 0.688, 1.3
> COC(=O)CCCNC(=O)c1ccc(S(=O)(=O)NCc2ccco2)cc1
→ -1.8, 0.4, 6.7, -1.2, 5.2, -0.7, -1.3, i, 0.665, 0.5
> CCOc1ccc(CCNC(=O)c2nnn(CC(=O)Nc3ccc(C)cc3)c2N)cc1OCC
→ x, 1.5, -8.8, x, x, x, -1.7, x, 0.733, -0.1
> Cc1cccc(Cn2c(NCCO)nc3c2c(=O)n(C)c(=O)n3C)c1
→ -4.9, 0.3, -31.5, 2.1, 12.0, 2.2, 6.1, i, 0.665, 0.1
> Cn1c(=O)[nH]c(=O)c2c1nc(CN1CCN(Cc3ccccc3)CC1)n2CC(N)=O
→ 10.6, 3.5, 8.4, 8.9, 4.9, -2.2, -2.7, i, 0.728, 0.9

Look-ups from the results shown:
`COC(=O)CCCNC(=O)c1ccc(S(=O)(=O)NCc2ccco2)cc1` in E coli growth is entered as 0.665
`Cc1cc(NC(=O)Nc2ccccc2)n(-c2ccccc2)n1` in T cruzi repl is entered as 7.5
`C=CCOC(=O)C1=C(C)Nc2nc3ccccc3n2C1c1ccncc1` (centres undefined) in UCH37 DUB inh is entered as -81.4

2 entries from above, field by field:
O=C(c1ccccc1)c1cccc(C(=O)c2ccccc2)c1
  MLL AF4-AF9 inh: x | UCH37 DUB inh: 0.3 | T cruzi repl: x | rRNA inh HTS: x | rRNA inh HTS OD600: x | rRNA inh HTS RFP: x | Beta apoptosis: -0.8 | FGF22 binding: x | E coli growth: 0.689 | Bfl-1 A1 inh: -0.7

Cc1ccc(C(=O)OCC(=O)N(C)C2CCS(=O)(=O)C2)cc1S(=O)(=O)N1CCCCC1 (centres undefined)
  MLL AF4-AF9 inh: -5.4 | UCH37 DUB inh: 3.8 | T cruzi repl: 4.4 | rRNA inh HTS: 5.4 | rRNA inh HTS OD600: 6.0 | rRNA inh HTS RFP: 0.1 | Beta apoptosis: 1.8 | FGF22 binding: i | E coli growth: 0.699 | Bfl-1 A1 inh: 0.6

Remaining list, next part:
| canonical_smiles | MLL AF4-AF9 inh | UCH37 DUB inh | T cruzi repl | rRNA inh HTS | rRNA inh HTS OD600 | rRNA inh HTS RFP | Beta apoptosis | FGF22 binding | E coli growth | Bfl-1 A1 inh |
| --- | --- | --- | --- | --- | --- | --- | --- | --- | --- | --- |
| Cc1ccc(N2C(=O)N3[C@H](c4ccc(F)cc4)[C@@H]4C(=O)N(C5CCCCC5)C(=O)[C@@H]4[C@]3(C)C2=O)cc1 | x | 6.0 | -0.5 | x | x | x | -1.5 | x | x | -0.7 |
| CCCCCCOC1(c2ccccc2)OC(=O)c2ccccc21 (centres undefined) | -3.0 | 0.4 | 6.6 | 12.8 | 19.6 | -2.2 | 2.4 | i | 0.648 | 0.2 |
| Cc1nn(C)cc1[C@@H]1C[C@H]2CN(Cc3cccc(Cl)c3)C(=O)[C@]23CCCN13 | -0.1 | 3.9 | -5.3 | 6.1 | 8.9 | 2.8 | -6.0 | i | 0.688 | -0.3 |
| O=S(=O)(Nc1ccccc1F)c1cccc(NC(=S)NCCN2CCOCC2)c1 | 1.7 | 2.5 | x | 9.0 | 16.9 | 0.6 | 1.2 | i | 0.682 | -2.0 |
| COc1ccc(Cl)c2sc(NC(=O)C3=COCCO3)nc12 | -0.2 | -22.0 | -5.1 | 5.7 | -9.7 | -1.8 | 0.8 | x | 0.673 | -0.3 |
| CCCCNC(=S)N(Cc1ccco1)Cc1cc2cc3c(cc2[nH]c1=O)OCCO3 | x | 0.6 | -1.1 | x | x | x | x | x | 0.726 | 0.9 |
| CCOC(=O)Cn1nnc(-c2ccc(SC)cc2)n1 | x | 0.6 | 0.1 | x | x | x | -6.3 | x | 0.65 | 0.3 |
| c1cnc2nc3c4ccccc4c4ccccc4c3nc2c1 | 2.2 | 1.6 | x | 5.7 | 5.0 | -3.6 | x | i | 0.61 | x |
| Oc1c(N=NC(=S)Nc2ccccc2F)c2ccccc2n1Cc1ccc(Cl)cc1 | 8.0 | x | 60.9* | 11.7 | 12.2 | 1.1 | 38.4 | i | x | 0.4 |
| CC(=O)Nc1cccc(NC(=O)c2ccc(Br)cc2)c1 | 0.6 | 4.6 | 8.0 | -16.6 | -18.6 | -2.5 | 8.7 | i | 0.688 | u |
| CS(=O)(=O)N(Cc1ccccc1)c1ccc(C(=O)Nc2cccnc2)cc1 | x | 0.0 | -22.9 | x | x | x | -1.7 | x | 0.652 | 0.4 |
| Cc1ccc(CN2CCNC(=O)C2CC(=O)NCc2csc(C(C)C)n2)cc1 (centres undefined) | 0.3 | -2.5 | 8.9 | 5.2 | 14.1 | 2.9 | -7.9 | i | 0.633 | 0.1 |
| Cc1cc(Cl)ccc1OCC(=O)NNC(=O)c1cnccn1 | -1.2 | 2.6 | -29.7 | -34.7 | -51.0 | 5.1 | -2.2 | i | 0.635 | 0.1 |
| Cc1ccccc1C(N)=O | x | 3.4 | x | 2.9 | -0.3 | -0.5 | x | i | 0.665 | x |
| COC(C[C@H]1O[C@H]1[C@@H](O)COCc1ccccc1)OC | 1.7 | 3.9 | -19.8 | 9.0 | 8.6 | -8.0 | x | i | x | x |
| NC(=O)CC(NC(=O)Cc1ccc(Br)cc1)c1ccc(N2CCc3ccccc3C2)c([N+](=O)[O-])c1 (centres undefined) | -4.6 | 6.3 | 4.3 | -7.6 | -3.3 | 0.2 | 0.7 | i | 0.718 | 0.6 |
| C=C1CCC2C(C)(C)[C@@H](O)CC[C@@]2(C)[C@@H]1COc1ccc2ccc(=O)oc2c1 (some centres undefined) | -0.3 | -14.3 | 41.3 | -5.2 | -2.1 | 4.8 | -0.6 | i | 0.673 | 1.6 |

Not all compounds are listed; the hit share may differ from the screen's.
